Bioassay records from PubChem.
MenB inh = M. tuberculosis MenB inhibitors, primary screen, biochemical, absorbance; 1,4-dihydroxy-2-naphthoyl-CoA synthase (Mycobacterium tuberculosis (strain ATCC 25618 / …; MenB enzyme assay, absorbance read-out; some hits fall short of the stated cut; inhibition, %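 (about 12 µg/mL by stock and volumes)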; 100,000 compounds, 0.43% hits;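 active = mean of two replicates above 30%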;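 also: 0% = no compound and 100% = wells with inactive enzyme; the first replicate is given; strong numbers were not always called active; inactives centre near -10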
Target sequence (P9WNP5 whole entry, looked up): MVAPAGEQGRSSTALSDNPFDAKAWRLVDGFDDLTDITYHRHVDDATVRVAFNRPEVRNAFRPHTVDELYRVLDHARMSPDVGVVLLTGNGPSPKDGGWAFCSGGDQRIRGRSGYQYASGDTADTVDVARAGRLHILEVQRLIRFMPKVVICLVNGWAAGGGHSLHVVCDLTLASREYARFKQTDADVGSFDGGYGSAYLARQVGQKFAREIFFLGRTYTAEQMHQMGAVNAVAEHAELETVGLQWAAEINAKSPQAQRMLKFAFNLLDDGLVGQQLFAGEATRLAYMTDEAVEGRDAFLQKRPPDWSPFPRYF
Mtb MbtI inh = MbtI salicylate synthase inhibitors, primary screen, biochemical, fluorescence intensity; inhibition, %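 (about 17 µg/mL by stock and volumes)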; 100,000 compounds, 0.89% hits; purified MbtI enzyme, fluorescence intensity read-out; AID 493033, 2011; P9WFX0;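 active = above 50% in both replicates, above 80% if mildly self-fluorescent; inactive = the rest, strongly fluorescent compounds included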;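 also: 0% = mean of negative and 100% = mean of positive controls; one replicate is shown; some compounds called inactive have numbers as strong as hits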
Target sequence (P9WFX0 whole entry, looked up): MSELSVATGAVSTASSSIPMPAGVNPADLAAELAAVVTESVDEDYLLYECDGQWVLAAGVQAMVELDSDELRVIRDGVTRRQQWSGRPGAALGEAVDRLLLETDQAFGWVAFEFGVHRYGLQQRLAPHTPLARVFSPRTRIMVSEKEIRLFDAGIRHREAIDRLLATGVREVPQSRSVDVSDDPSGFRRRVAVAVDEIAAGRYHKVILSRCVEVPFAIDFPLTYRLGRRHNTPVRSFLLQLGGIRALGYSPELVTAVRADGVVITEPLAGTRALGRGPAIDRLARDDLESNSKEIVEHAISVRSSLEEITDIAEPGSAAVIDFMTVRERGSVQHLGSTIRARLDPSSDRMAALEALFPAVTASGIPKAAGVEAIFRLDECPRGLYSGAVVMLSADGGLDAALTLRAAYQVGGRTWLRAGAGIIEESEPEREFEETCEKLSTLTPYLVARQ
PV pol inh = poliovirus RdRp elongation inhibitors, primary screen, biochemical, fluorescence polarization, total intensity; Genome polyprotein (Poliovirus type 1 (strain Mahoney)), P03300; poliovirus polymerase elongation; hits give low values; % elongation, % (compound at 16.7 µg/mL); 150,000 compounds, 0.66% hits; in the data active = % elongation below about 90%; also: some results filed as inactive read as strong as hits
PV pol inh intensity = recorded beside PV pol inh, whose call it bears; % elongation; measured here: total intensity read-out; formula for this scale not given here;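 total fluorescence in place of polarization; lower means less elongation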
An asterisk follows results filed as active; i = inactive; nt = no result given.

Every second line gives: MenB inh | PV pol inh intensity | Mtb MbtI inh | PV pol inh
C=CCn1c(SC(C#N)Cc2ccccc2)nnc1C1CCCCC1 (configuration not stated)
    9 | 97 | 4 | 101
COc1ccc(Cc2nc3ccccc3n2C(C)C)cc1
    -31 | 103 | 3 | 103
CC(=O)Nc1ccc(NC(=O)C2CC(=O)N(Cc3ccco3)C2)cc1 (configuration not stated)
    -16 | 94 | 15 | 98
Cc1cc(C(=O)CSC2=C(C#N)C(C)(C)C(C#N)C(=O)N2)c(C)n1-c1ccccc1 (configuration not stated)
    3 | 104 | -22 | 102
CCSC1=C(C#N)C(c2ccc(C(C)C)cc2)C2=C(CCCC2=O)N1 (configuration not stated)
    -37 | 104 | 28 | 103
COC(=O)C1=NN(C(=O)c2cccc(OC)c2)C(C)(O)C1 (configuration not stated)
    33 | 101 | 1 | 101
Cc1ccc(NC(=O)CCC(=O)c2cccs2)cc1
    -6 | 105 | -7 | 102
NC(=O)Cn1c(-c2nonc2N)nc2ccccc21
    2 | 111 | 3 | 102
CC(C)c1cc(C(=O)Nc2ccc(-c3nnc4n3CCCCC4)cc2)c2cnn(C(C)C)c2n1
    -13 | 98 | 11 | 98
COc1ccc(CCNS(=O)(=O)c2ccc3[nH]c4c(c3c2)CCCC4)cc1OC
    -3 | 101 | -5 | 101
COc1cccc(C(=O)NC(c2ccco2)c2c(O)ccc3ccccc23)c1 (configuration not stated)
    -18 | 104 | 8 | 100
Brc1ccc2c(ccc[n+]2C/C=C/c2ccccc2)c1
    -1 | 112 | 6 | 105
CC(CC[C@@H](O)C(C)C)C1CCC2C3CC=C4C[C@@H](O)CC[C@]4(C)C3CC[C@]12C (some centres not stated)
    6 | 103 | nt | 102
Cc1nc2ccccc2[nH]c1=S
    -62 | 104 | 57 | 99
COC(=O)c1cc2oc3ccccc3c2n1CC(=O)Nc1cc(C)cc(C)c1
    10 | 104 | -2 | 99
Cc1onc(-c2ccccc2)c1C(=O)NCc1ccc2c(c1)OCO2
    -6 | 109 | -8 | 103
COC(=O)C1C2C=CC3(CN(Cc4ccco4)C(=O)C13)O2 (configuration not stated)
    -2 | 102 | -6 | 102
COc1ccccc1NC(=O)NCC(c1ccco1)N1CCCCC1 (configuration not stated)
    -31 | 88 | -18 | 98
COc1nc(-c2ccc(Cl)cc2Cl)nc2ccccc12
    -15 | 111 | nt | 107
CC(NC(=O)c1ccccc1F)C1CC1 (configuration not stated)
    -4 | 108 | -4 | 100

Continued; it opens with the four that closed the last part.
Every second line gives: MenB inh | PV pol inh intensity | Mtb MbtI inh | PV pol inh
COC(=O)C1C2C=CC3(CN(Cc4ccco4)C(=O)C13)O2 (configuration not stated)
    -2 | 102 | -6 | 102
COc1ccccc1NC(=O)NCC(c1ccco1)N1CCCCC1 (configuration not stated)
    -31 | 88 | -18 | 98
COc1nc(-c2ccc(Cl)cc2Cl)nc2ccccc12
    -15 | 111 | nt | 107
CC(NC(=O)c1ccccc1F)C1CC1 (configuration not stated)
    -4 | 108 | -4 | 100
CN(C)c1nc(Nc2ccc(F)cc2)nc(Oc2ccc(F)cc2)n1
    -8 | 104 | -4 | 102
CC1CC(C)CN(c2nnc(NC(=O)c3cc(-c4ccc(Br)cc4)on3)s2)C1 (configuration not stated)
    -11 | 103 | -10 | 104
Cc1nnc(NC(=O)C(C)Oc2ccc(Cl)c(C)c2)s1 (configuration not stated)
    -14 | 105 | 5 | 102
Cc1sc2nc(C)n(C3CCN(CC(=O)NCC4CC4)CC3)c(=O)c2c1C
    -22 | 103 | -2 | 102
COc1ccc(C2N3CCCN23)cc1 (configuration not stated)
    -25 | 98 | 9 | 101
N#CCCn1cc(/C=N/n2c(=O)[nH]c3ccccc3c2=O)c(-c2ccc(F)cc2)n1
    0 | 98 | 4 | 96
Cc1ncc(CO)c(CNc2ccccc2)c1O
    7 | 104 | -13 | 102
Cc1nc(SCC(=O)c2cc(C)n(-c3ccccc3)c2C)c2ccsc2n1
    -40 | 100 | 7 | 100
O=c1c2ccccc2ncn1-c1ccc(F)cc1
    -24 | 103 | -29 | 101
COc1cc(C2N(c3ccccc3)CCN2c2ccccc2)cc(OC)c1OC
    -42 | 103 | -17 | 100
C=CCSc1nnc(CCc2nnc(SCC=C)n2-c2ccccc2)n1-c1ccccc1
    -9 | 103 | -5 | 104
COc1ccc(-c2nonc2NC(=O)COc2ccccc2)cc1
    13 | 99 | 4 | 103
Cc1ccccc1OCC(=O)Nc1ccc(NC(=O)c2ccco2)cc1
    -22 | 101 | 4 | 101
Nc1cc(N)nc(SC(C(=O)N2CCCCC2)c2ccccc2)n1 (configuration not stated)
    -1 | 109 | -1 | 103
NC(=O)CN1CCN(c2ccc(Cl)cc2)CC1
    2 | 102 | -13 | 101
CC1CC(=O)Nc2ccccc2N1C(=O)c1ccco1 (configuration not stated)
    -1 | 101 | -7 | 98
CN1C(=O)N(S(=O)(=O)c2ccc(F)c(F)c2F)C(=O)C1(C)C
    -2 | 97 | -7 | 95
CSc1nsc(SCCN2C(=O)c3ccccc3C2=O)n1
    -1 | 102 | -14 | 101
O=C(OCc1ccccc1)Oc1cncc(C(=O)O)c1
    -15 | 98 | -60 | 102
O=S(=O)(c1ccccc1)N1CCC(n2cnc3ccccc32)CC1
    12 | 102 | -9 | 99
CCCCN1CC(C(=O)NCCc2ccc(Cl)cc2)CC1=O (configuration not stated)
    -5 | 108 | -6 | 103
O=C1CN(C(=O)/C=C/c2ccc(Cl)cc2)c2ccccc2N1
    -10 | 100 | 8 | 108
Cc1cc(C)c(C)c(C(=O)O)c1C
    7 | 102 | nt | 99
CC1(C)CC2CC(C)(CN2C(=O)Nc2ccc3snnc3c2)C1 (configuration not stated)
    4 | 108 | 2 | 102
O=C(c1cc2sccc2n1Cc1ccccc1)N1CCN(Cc2ccc3c(c2)OCO3)CC1
    19 | 105 | -9 | 104
CCc1nc(NCC(C)C)c(C#N)c2c1CCCC2
    -9 | 101 | i | 102
CC(C)(C)c1ccc(OCCC(=O)O)cc1
    4 | 98 | -2 | 104
CC(C)N(Cc1cc2ccccc2[nH]c1=O)C(=O)c1ccncc1
    -24 | 101 | 41 | 100
N=C1c2ccccc2CN1c1ccc(S(=O)(=O)N2CCCCC2)cc1
    -7 | 99 | 2 | 99
CC1=NN(c2ccccc2)C(=O)/C1=C1/C(=O)N(c2ccccc2)N=C1C
    -11 | 52* | 9 | 57*
N=c1n(CC(=O)c2ccc(Cl)c(Cl)c2)c2ccccc2n1Cc1ccccc1
    -59 | 102 | 15 | 100
CC(C)(C)c1ccc2c(c1)N(CC(=O)O)C(=O)CO2
    6 | 103 | -5 | 94
CC(C(=O)Nc1ccc(Br)cc1)N1CCN(S(=O)(=O)c2ccccc2)CC1 (configuration not stated)
    -12 | 100 | -17 | 103
O=C1NC(=O)C(CC(=O)N2CCCCC2)N1 (configuration not stated)
    -28 | 96 | -8 | 105
c1ccc(SCCNC2=NCCCS2)cc1
    -38 | 93 | 0 | 106
CN1CCc2cc3c(cc2[C@H]1[C@@H]1OC(=O)c2c1ccc1c2OCO1)OCO3
    -4 | 100 | -16 | 101
CCOCCn1c(=NC(=O)C(C)(C)C)sc2cc(S(C)(=O)=O)ccc21
    -8 | 104 | -2 | 106
C=CCOC(Cn1ccnc1)c1ccc(Cl)cc1Cl (configuration not stated)
    8 | 105 | 2 | 101
O=C1c2ccc(-c3nc4cc(Cl)ccc4c(=O)o3)cc2C(=O)N1CC1CCCO1 (configuration not stated)
    -1 | 102 | -5 | 98
COC(=O)c1ccc(COC(=O)c2ccccc2Cl)cc1
    nt | 97 | -7 | 101

4 entries drawn at random from those above:
Every second line gives: MenB inh | PV pol inh intensity | Mtb MbtI inh | PV pol inh
O=C1NC(=O)C(CC(=O)N2CCCCC2)N1 (configuration not stated)
    -28 | 96 | -8 | 105
CN1CCc2cc3c(cc2[C@H]1[C@@H]1OC(=O)c2c1ccc1c2OCO1)OCO3
    -4 | 100 | -16 | 101
CC1(C)CC2CC(C)(CN2C(=O)Nc2ccc3snnc3c2)C1 (configuration not stated)
    4 | 108 | 2 | 102
C=CCOC(Cn1ccnc1)c1ccc(Cl)cc1Cl (configuration not stated)
    8 | 105 | 2 | 101

Following part
Every second line gives: MenB inh | PV pol inh intensity | Mtb MbtI inh | PV pol inh
CC(=O)NC(=S)Nc1ccc(Cl)cc1
    7 | 104 | 12 | 99
CCN(CC(=O)Nc1ccc2c(c1)OCCO2)C(=O)C1CC1
    -1 | nt | -8 | nt
COC(=O)c1scc(-c2ccccc2)c1S(=O)(=O)N1CCN(c2ccccc2OC)CC1
    -32 | 102 | -23 | 101
COc1cnn(-c2cccc(Cl)c2)c(=O)c1Cl
    -8 | 102 | -1 | 101
CCn1cc(C(=O)NC2CCCCC2)c2cc(OC)c(OC)cc2c1=O
    -5 | 101 | 20 | 100
CC(C(=O)O)n1c(-c2cccs2)n[nH]c1=S (configuration not stated)
    -39 | 110 | -7 | 105
Cc1cc(C(=O)N2CCc3ccccc3C2)n[nH]1
    -6 | 101 | -25 | 103
COc1ccccc1-n1c(-c2ccccc2)cn2c3c(=O)n(C)c(=O)n(C)c3nc12
    -12 | 115 | nt | 102
CC(=O)N1CCN(CC(=O)N2CCc3ccccc3C2)CC1
    -27 | 88 | -1 | 96
Fc1cnc(Nc2cccc(Br)c2)nc1Nc1cccc(Br)c1
    -2 | 107 | -3 | 106
COC(OC)(C(=O)c1ccccc1)c1ccccc1
    11 | 107 | -12 | 104
CCCCS(=O)(=O)Nc1cccc(Cl)c1
    14 | 103 | -5 | 99
CNS(=O)(=O)c1ccc(C(F)(F)F)cc1S(=O)c1ccccc1C(=O)O (configuration not stated)
    -9 | 100 | 2 | 99
O=C1NC(Nc2nc3ccccc3s2)(C(F)(F)F)C(=O)N1C1CCCCC1 (configuration not stated)
    -3 | 101 | -3 | 101
Cc1ccc(CNC(=O)c2ccc(Cn3nc(C)c(Cl)c3C)o2)cc1
    -24 | 105 | 33 | 101
O=C(CSc1nc2ccccc2s1)c1ccc[nH]1
    -43 | 73* | 10 | 58*
O=C(NC1CCCC1)c1ccc2c(=O)n3c(nc2c1)CCCCC3
    2 | 103 | 2 | 100
O=C(CCCn1ncn2c(cc3occc32)c1=O)N1CCCCC1
    3 | 98 | 6 | 101
CC(NC(=O)c1ccc(C(C)(C)C)cc1)C(=O)O (configuration not stated)
    -22 | 99 | -8 | 100
COC(=O)c1ccc(COc2ccc(/C=N/NC(N)=O)cc2)o1
    -6 | 99 | 1 | 97
NC(=O)C1CCN(C(=O)CCc2nc3ccccc3n2-c2ccccc2)CC1
    -13 | 101 | -5 | 101
CCn1c2ccc(F)cc2c2nc(C)sc21
    -12 | 103 | 99 | 102
O=C1c2ccccc2C(=O)c2oc(-c3ccc(F)cc3)nc21
    nt | 93 | 67 | 97
CCn1cc(C(=O)OCC(=O)N(C)Cc2ccccc2)c(=O)c2ccc(C)nc21
    -20 | 112 | 8 | 102
CS(=O)(=O)Cc1ccc(C(=O)N2CCCC2c2cccs2)cc1 (configuration not stated)
    -15 | 98 | -1 | 100
O=C(NCc1cccnc1)c1cnn(-c2cccc(F)c2)c1C1CCNCC1
    -18 | 102 | -15 | 103
c1ccc2c(c1)NC(c1c[nH]c3ccccc13)N2
    9 | 134 | -266 | 108
O=c1cccc2n1CC1CC2CN(CC(O)COc2ccccc2)C1 (configuration not stated)
    12 | 103 | 6 | 99
O=S(=O)(/N=C(/c1ccccc1)N1CCCCC1)c1ccccc1
    0 | 105 | -4 | 103
O=C(/C=C/c1ccc(S(=O)(=O)NCc2ccco2)cc1)NCC(F)(F)F
    -15 | 110 | -8 | 101
Clc1ccc(C=NCc2ccc(-c3cccs3)s2)cc1
    3 | 112 | -9 | 104
O=c1[nH]c(N2CCN(Cc3ccccc3)CC2)nc(O)c1Cc1ccccc1
    -36 | 101 | -13 | 102
Cc1[nH]c(=S)c(C#N)c(C)c1CCC#N
    -27 | 103 | 31 | 107
O=C(O)C(F)(F)C12OC3C4C5CC(C6C5C3C61)C42 (configuration not stated)
    -25 | 103 | -40 | 102
COC(=O)c1cc2c(s1)-c1cc(Cl)ccc1SC2
    -2 | 106 | -2 | 104
CN(C)c1nc2n(c(=O)n1)CCN2C(=S)S
    16 | 100 | -5 | 100
O=C(NC1CC1)C1CCCN(C(=O)NC2CCCCC2)C1 (configuration not stated)
    -5 | 100 | -26 | 101
COC(=O)c1c(C)oc2ccc(OCc3ccccc3)cc12
    nt | 103 | -1 | 101
CCc1ccc(NC(=O)C2Cc3ccccc3C(=O)O2)cc1 (configuration not stated)
    -9 | 112 | nt | 105
Cc1c(C(=O)O)oc2c1-c1nn(Cc3cccc(Cl)c3)cc1CC2
    -15 | 104 | 35 | 103
